Anaer choline gr – inhibitors of anaerobic choline-dependent gram-negative bacterial growth; Gram-negative bacterium anaerobic choline minimal medium, absorbance growth; hits give low values; many inactives read as strong as hits in the columns shown; calls only; 55,000 tested, 0.2% active;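 active = growth z-score on choline under -2 at 7 or 20 h with little or no fall on glycerol, limits in tiers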;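 note: stock transfer was 300 nL into about 50 µL; the organism is E. coli; final concentration not given here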
Anaer choline gr early – second read-out of Anaer choline gr, no call of its own (marks repeat the call); z-score; measured here: choline growth z-score, timepoint 1;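 score of optical density at 7 h as mean of two plates; lower means less growth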
* marks the source's active call; other numbers are inactive results; i = inactive; & = joins results of further samples. Some of the compounds tested. The share of hits here may be higher or lower than overall.

Anaer choline gr	Anaer choline gr early	molecule
i	-0.62	CC(CNC(=O)CCS(=O)(=O)c1ccc2c(c1)CC(C)N2C(=O)C1CC1)c1ccccc1 (stereo not given)
i	0.29	Cc1ccccc1CNC1=NCCNC12CCN(S(=O)(=O)c1ccccc1C)CC2
i	-0.15	CCOC(=O)c1ccccc1NC(=O)Cn1nnc2sc3c(c2c1=O)CCC(C(C)(C)C)C3 (stereo not given)
i	-1.12&-0.11&0.7	CC1=C(C)C(=O)C(CCCCC#CCCCC#CCO)=C(C)C1=O
i	-0.07	COc1ccc(S(=O)(=O)N(C(=O)c2ccccc2C)c2ccc3oc(=O)sc3c2)cc1
i	-0.15	CNC(=O)Nc1ccc(C2(C(=O)NCC3CCCO3)CCC2)cc1 (stereo not given)
i	0.24	O=C1CN(Cc2ccc(F)cc2Cl)S(=O)(=O)c2ccccc2N1Cc1ccc(F)cc1
i	-0.23	Cc1ccc2[nH]cc(CCNC(=O)CC3CCN(C(=O)c4[nH]c(C)cc4C)CC3)c2c1
i	0.45	CN(CC[C@@H](Oc1ccc(-c2ccccc2)cc1)c1ccc(F)cc1)CC(=O)O
i	0.54	CCCn1cnc2cc(-c3noc(-c4ccnn4C)n3)ccc21
i	1.11	O=c1c2cnn(-c3ccccc3)c2nc(-c2ccccc2F)n1-c1ccc(Cl)cc1
i	-0.21	CC(=O)CCCCn1cnc2c1c(=O)n(C)c(=O)n2C
i	0.92	CCc1ccc(NC(=O)c2scc(-c3ccccc3)c2-n2cccc2)cc1
i	0.56	COc1cccc(NC(=O)CCCn2c(=O)c3cccn3c3ccc(F)cc32)c1
i	-1.06	COC(=O)c1ccccc1NC(=O)c1ccc(-n2nc(OCc3cccc(F)c3)ccc2=O)cc1
i	0.5	COc1cc(N2C=C(C#N)S(=O)(=O)c3ccc(Cl)cc32)cc(OC)c1OC
i	0.01	O=C(NC1CCCc2ccccc21)c1ccc(CN2C(=O)CCn3nc(-c4ccc(Cl)cc4)cc32)cc1 (stereo not given)
i	0.2	COc1ccc(OC)c(NC(=O)c2ccc(S(=O)(=O)c3ccc(Br)cc3)nc2)c1
i	-0.34	CC[N+](CC)(CC)CCC(O)(c1ccccc1)C1CCCCC1 (stereo not given)
i	0.15	CCOC(=O)c1sc(NC(=O)Cc2coc3ccc(C(C)C)cc23)c(C(=O)OCC)c1C
i	-1.1	O=C(Nc1ccc2c(c1)OCCO2)c1ccc(-n2nc(OCc3cccc(F)c3)ccc2=O)cc1
i	0.34	Cc1ccc(CNC(=O)C2CCCN(c3nc4nc[nH]c(=O)c4s3)C2)o1 (stereo not given)
i	0.34	CCCSCCCNC(=O)Cn1c(=O)c(=O)n(C)c2ncccc21
i	0.1	CCn1c(=O)c2c(nc3n2CCCN3C2CCCCC2)n(C)c1=O
i	1.6	O=C(Nc1cc(-c2ccccc2)nn1-c1ccccc1)c1ccc(Br)cc1

Record cards, as listed above:
CN(CC[C@@H](Oc1ccc(-c2ccccc2)cc1)c1ccc(F)cc1)CC(=O)O as listed: Anaer choline gr = i; Anaer choline gr early = 0.45
O=C(Nc1cc(-c2ccccc2)nn1-c1ccccc1)c1ccc(Br)cc1 as listed: Anaer choline gr = i; Anaer choline gr early = 1.6
CNC(=O)Nc1ccc(C2(C(=O)NCC3CCCO3)CCC2)cc1 (stereo not given) as listed: Anaer choline gr = i; Anaer choline gr early = -0.15

More records:
Anaer choline gr	Anaer choline gr early	molecule
i	-0.95	CCOCCCNC(=O)CCCN1C(=O)c2cccnc2Oc2ccc(Cl)cc21
i	0.29	CCc1ccc(NC(=O)c2c(C(=O)Nc3ccc(C(=O)OC)cc3)sc3nc(C)cc(=O)n23)cc1
i	-0.11	O=C(CN1C(=O)C2CCCCN2c2ccc(C(=O)N3CCCC3)cc21)NCCc1cnc[nH]1 (stereo not given)
i	0.26	CC1(C)CC(=O)C2=C(C1)Nc1ccccc1N(CC(=O)NCC1CCCO1)C2c1ccccc1 (stereo not given)
i	-1.9	CC(C)NC(=O)c1cc2n(n1)CC(C)(C(=O)NC1CCCCC1)N(C)C2=O (stereo not given)
i	1.06	O=S(=O)(NCc1csc(-c2ccccc2)n1)c1ccc(Cl)cc1
i	-0.13	COc1ccccc1NC(=O)Cn1cc(C(=O)Nc2ccc(F)cc2)c(=O)c2ccc(C)nc21
i	0.78	CC(C)(C)C1CCc2c(sc3nc(CCC(=O)N4CCc5ccccc5C4)[nH]c(=O)c23)C1 (stereo not given)
i	-0.29	Cc1nc(N2CCC(C(=O)NC3CCCCC3)CC2)c2c(C)c(C)oc2n1
i	-0.43	C=C(C)CN1CCN(c2cc(C)nc3c(C)c(-c4ccc(OC)c(OC)c4)nn23)CC1
i	0.77	Cc1csc(-c2cc(S(=O)(=O)N3CCN(c4cccc(Cl)c4)CC3)c(C)s2)n1
i	0.5	CCOC(=O)c1[nH]c(C)c(CCC(=O)N2CCCC(C(=O)NCCc3c(C)nn(CC)c3C)C2)c1C (stereo not given)
i	-1.64	CCS(=O)(=O)N1CCCc2cc(C(=O)Nc3cc(OC)c(OC)cc3C(=O)OC)ccc21
i	0.79	COc1ccccc1N1CCN(c2ncc(S(=O)(=O)c3ccc(C)c(C)c3)c(N)n2)CC1
i	0.79	Cc1ccc(Cn2c(CNC(=O)c3ccc4c(c3)OCO4)nc3cccnc32)cc1
i	0.21	CN(Cc1ccc(Cl)cc1)Cc1cc(=O)n2nc(C3CC3)sc2n1
i	-1.14	Cc1nc2ccccc2c2c1C(=O)N(c1cccc(C(=O)OC(C)C(=O)c3ccccc3)c1)C2=O (stereo not given)
i	0.33	CN1CCN(CCNC(=O)CN2C(=O)CCn3nc(-c4cn(C)c5ccccc45)cc32)CC1
i	-0.04	Cn1c(=O)n(Cc2cccnc2)c(=O)c2cnc(-c3ccncc3)nc21
i	-0.99	CCOC(=O)c1cc(-c2ccc(C)cc2)n(CC(=O)NCC2COc3ccccc3O2)c1C (stereo not given)
i	0.75	COc1ccc(CNC(=O)c2cccc(-n3nnc4cccnc43)c2)cc1
i	-0.57	CCS(=O)(=O)c1ccc2c(c1)N(CC(=O)O)C(=O)CO2
i	2.03	COc1cccc(C2Nc3ccc(Cl)cc3[C@H]3OCCC[C@@H]23)c1OC (stereo not given in full)
i	0.47	O=C1COc2ccc(S(=O)(=O)N3CCN(C(=O)CNC(=O)c4ccccc4)CC3)cc2N1
i	-1.57	COc1ccc(S(=O)(=O)N2CCC[C@@H]2C(=O)NCCc2csc(C)n2)cc1
i	1.05	CCCc1cc(Sc2ccccc2N)n2ncnc2n1
i	0.03	Cc1ccc(N2CCN(C(=O)c3cccc(N4CCCS4(=O)=O)c3)CC2)c(C)c1
i	0.61	COc1cc(OC)c(Nc2c(C(=O)N3CCCCC3)cnc3ccc(F)cc23)cc1Cl
i	-1.72	CC(C)CCNC(=O)C1(C)CCC(=O)N1CCCOC(C)C (stereo not given)
i	-0.11	Clc1ccccc1CNc1nn2nnnc2c2ccccc12
i	-0.08	CC(C)Cn1cnc2scc(-c3ccccc3)c2c1=O
i	0.64	CC(=O)Nc1onc(C)c1-c1ccc(C)c(S(=O)(=O)Nc2cccc(Cl)c2)c1
i	-1.77	CC(=O)Nc1sc(C)c(C)c1SC#N
i	0.03	COc1ccc(OC)c(NC(=O)Cn2c(C)cc(C)c(S(=O)(=O)c3ccc(Cl)cc3)c2=O)c1
i	0.36	C=CCOc1ccc(C2CC(=O)Nc3nc(N)[nH]c(=O)c32)cc1OC (stereo not given)
i	-0.26	O=C(c1cc2ccccc2[nH]1)N1CCN(C(=O)c2ccccc2Br)CC1
i	-0.85	CC(C)(C)c1ccc(S(=O)(=O)N2CCCCC2C(=O)N2CCN(c3ccc(F)cc3)CC2)cc1 (stereo not given)
i	0.2	CCc1ccc(S(=O)(=O)c2cnc(N3CCN(c4ccccc4F)CC3)nc2N)cc1
i	0.91	Cc1cc(OC(C)C(=O)Oc2cccc(-n3cnnn3)c2)ccc1Cl (stereo not given)
i	-1.9	O=C(CSc1nnc(-c2cc3ccccc3[nH]2)o1)Nc1ccc2c(c1)OCO2
i	1.19	Cc1nn(-c2ccc3nnc(C)n3n2)c(C)c1CCC(=O)Nc1ccc(F)cc1F
i	-1.6	Cn1nc(C(=O)N2CCN(c3ccc(F)cc3)CC2)cc1C(F)(F)F
i	0.82	CC(C)(C)NC(=O)N1CCCN(S(C)(=O)=O)CC1
i	0.49	CCOC(=O)c1c(C)c(CCC(=O)N2CCCC2)n(C)c1C
i	-2.53	Clc1ccccc1/C=C/c1nn2c(-c3ccccn3)nnc2s1
i	0.65	CCOC(=O)c1c(-c2ccc(F)cc2)csc1NC(=O)c1cc2ccccc2c(=O)s1
i	-0.16	Cc1cc(Nc2ccccc2)nc(N2CCN(C(=O)Nc3ccc(Cl)cc3)CC2)n1
i	-0.12	CCc1ccc(-c2ccc(=O)[nH]n2)cc1S(=O)(=O)Nc1ccc(Br)c(C)c1
i	1.47	COC(=O)c1sccc1NC(=O)C1CCN(c2ccc(=O)n(-c3cccc(F)c3)n2)CC1
i	0.03	CN1C(=O)c2[nH]nc(-c3ccccc3)c2C1c1ccccn1 (stereo not given)

Following part.
Anaer choline gr	Anaer choline gr early	molecule
i	0.22	CCOc1ccc(-c2nonc2NC(=O)C(C)Oc2cc(C)cc(C)c2)cc1C (stereo not given)
i	0.76	CCOc1c(Br)cc(C2Nc3ccc(C)cc3[C@H]3OCC[C@@H]23)cc1OC (stereo not given in full)
i	0.94	CCc1ccc(NS(=O)(=O)c2cc(-c3nc(C)c(C)s3)sc2C)cc1
i	-0.6	Cc1nnc(SCc2cc(=O)n3cccc(C)c3n2)s1
i	0.39	Cc1cccc(-c2nnc3ccc(Cl)nn23)c1
i	-0.05	Cc1cccc(C(=O)Nc2cc(C)nn2-c2ncnc3c2cnn3-c2ccccc2)c1
i	1.09	CN(C)c1cc2c(Nc3ccc4c(cnn4Cc4ccccc4)c3)ncnc2cn1
i	0.04	CCOC(=O)c1c(C)oc2ncnc(Nc3cc(CO)ccc3C)c12
i	-0.29	CC1CCCCN1S(=O)(=O)c1cc(-c2ccc(=O)[nH]n2)ccc1Cl (stereo not given)
i	0.36	CCCCn1c(SCCC)nc2sc3c(c2c1=O)CCC3
i	0.91	O=C(c1cn2c(n1)CSCC2)N1CCOCC1
i	-0.11	Cc1csc2nc(COc3ccccc3NC(=O)C(C)(C)C)cc(=O)n12
i	-0.6	CC(C)(C)NC1=NCCNC12CCN(S(=O)(=O)c1ccc(Cl)cc1)CC2
i	-0.51	CCOC(=O)c1[nH]c(C)c(CN(C(=O)NC2CCCC2)C2CCCCC2)c1C
i	-0.14	Clc1cc(Cl)cc(-c2ccc(CNCc3ccco3)o2)c1
i	0.93	Cn1cnc2cc(-c3noc(Cc4ccccc4Br)n3)ccc21
i	0.8	Cc1nc(-c2ccc(-n3cc(C(=O)Nc4ccc(Cl)cc4)c(C)n3)cc2)no1
i	0.59	CCOc1ccc(N(CC(=O)N2CCN(c3ccccc3OC)CC2)S(=O)(=O)c2ccc(Cl)cc2)cc1
i	1.06&0.43&0.4	Cc1ccc(C(=O)c2cc(O)c(O)c([N+](=O)[O-])c2)cc1
i	0.34	COc1ccccc1N(Cc1nc2nc(C)cc(=O)n2[nH]1)C(=O)C(C)C
i	-0.84	Cc1noc(-c2c(C)sc(C)c2S(=O)(=O)Nc2ccc(S(N)(=O)=O)cc2)c1C
i	-0.52	CCCc1cc(Sc2ccc(NS(=O)(=O)c3cccc4nsnc34)cc2)n2ncnc2n1
i	0.08	Cc1[nH]c2ccccc2c1C(=O)CSc1nc2cc(C(=O)NC(C)C)ccc2c(=O)n1-c1cccc(F)c1
i	0.89	CCN(CC)C(=O)c1ccc(-c2nc3cc(NS(=O)(=O)c4ccc(C)cc4)ccc3n2C)cc1
i	-0.25	CC(C)Oc1ccc(C(=O)NCC(c2ccc(N(C)C)cc2)N(C)C)cc1 (stereo not given)
i	0.28	CCc1noc2nc(CCC(=O)O)nc(N3CCCCC3)c12
i	0.04&-0.09	COc1ccc(C[C@H](C)NC[C@@H](O)c2ccc(O)c(NC=O)c2)cc1
i	0.03	O=C(COc1ccc(Cl)cc1)Nc1cccc(OCc2cc(=O)n3ccccc3n2)c1
i	1.02	Cc1ccc(-n2ccc(=O)c(-c3nc(-c4ccccc4)no3)n2)cc1
i	-0.81	CCC(C(=O)NCCc1ccccc1Cl)n1nc(C)c2sc3ccccc3c2c1=O (stereo not given)
i	-0.11	CCOC(=O)c1sc(NC(=O)Cc2csc(C)n2)c(C(=O)OCC)c1C
i	-2.77	Cn1ncc(S(=O)(=O)Cc2ccccc2)c(Br)c1=O
i	0.73	Cc1ccccc1-c1noc(CSc2n[nH]c(=O)c3cc(-c4ccc(F)cc4)nn23)n1
i	0.12	N#Cc1cc([N+](=O)[O-])c2sc(C(N)=O)[n+]([O-])c2c1
i	-0.2	COc1ccc(S(=O)(=O)c2c(C)cc(C)n(CC(=O)Nc3cc(OC)cc(OC)c3)c2=O)cc1

7 consecutive entries from above, for reference:
Anaer choline gr	Anaer choline gr early	molecule
i	1.02	Cc1ccc(-n2ccc(=O)c(-c3nc(-c4ccccc4)no3)n2)cc1
i	-0.81	CCC(C(=O)NCCc1ccccc1Cl)n1nc(C)c2sc3ccccc3c2c1=O (stereo not given)
i	-0.11	CCOC(=O)c1sc(NC(=O)Cc2csc(C)n2)c(C(=O)OCC)c1C
i	-2.77	Cn1ncc(S(=O)(=O)Cc2ccccc2)c(Br)c1=O
i	0.73	Cc1ccccc1-c1noc(CSc2n[nH]c(=O)c3cc(-c4ccc(F)cc4)nn23)n1
i	0.12	N#Cc1cc([N+](=O)[O-])c2sc(C(N)=O)[n+]([O-])c2c1
i	-0.2	COc1ccc(S(=O)(=O)c2c(C)cc(C)n(CC(=O)Nc3cc(OC)cc(OC)c3)c2=O)cc1
